Screening results: PubChem BioAssay, Broad Institute
HIV Env fusion: blocks HIV Env-driven cell-cell fusion | 360,000 tested, 1.1% active | AID 651610 | HeLa-JRFL Env/CEM21 cell fusion, luciferase | inhibition, % at 12.3 µM;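 active = mean replicate inhibition score of at least 50 and every replicate individually at or above 50; inconclusive = only one of the two criteria met; inactive = mean below 50 and not all replicates reaching 50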;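 also: 0% = plate neutral controls and 100% = maraviroc near 300 nM; one replicate is shown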
Numbers without * were called inactive; u = inconclusive; [ ] = another dose, or the depositor's remark.

Molecule	HIV Env fusion
C[C@@H](NC(=O)C[C@H]1C[C@@H]2c3cc(NC(=O)c4ccc5c(c4)OCO5)ccc3O[C@@H]2[C@@H](CO)O1)c1ccccc1	11[16.7 µM]
C[C@H](CO)N1C[C@H](C)[C@@H](CN(C)S(=O)(=O)c2cccs2)Oc2ccc(NS(=O)(=O)c3cccs3)cc2CC1=O	-13[16.7 µM]
COc1ccc(S(=O)(=O)Nc2cccc3c2O[C@H](CN(C)CC2CCCCC2)[C@H](C)CN([C@H](C)CO)C3=O)cc1	6[16.7 µM]
C[C@H]1CN([C@@H](C)CO)C(=O)c2ccccc2-c2ccccc2CO[C@H]1CN(C)C(=O)CCC(F)(F)F	22[16.7 µM]
CCCNC(=O)C[C@H]1CC[C@H]2[C@@H](COc3ccc(NC(=O)c4ccc5c(c4)OCO5)cc3C(=O)N2C)O1	7[16.7 µM]
CCc1c(Cc2ccccc2)ncn1CCc1ccccc1OC	7
CC(C)NC(=O)Nc1ccc2c(c1)C(=O)N([C@@H](C)CO)C[C@@H](C)[C@@H](CN(C)C(=O)CCC(F)(F)F)OCCCC[C@H](C)O2	-17[16.7 µM]
C[C@@H]1CN([C@@H](C)CO)C(=O)c2cc(NC(=O)c3ccncc3)ccc2O[C@@H](C)CCCCO[C@H]1CN(C)C(=O)c1ccncc1	-3[16.7 µM]
C[C@H]1CN([C@@H](C)CO)C(=O)c2ccccc2-c2ccccc2CO[C@@H]1CN(C)C(=O)[C@H](Cc1ccccc1)N(C)C	11[16.7 µM]
C[C@H](CO)N1C[C@H](C)[C@@H](CN(C)CC2CC2)OCCCC[C@H](C)Oc2ccc(NS(C)(=O)=O)cc2C1=O	2[16.7 µM]
CCCCc1c(-c2ccccc2OC)ncn1Cc1ccccc1C	14
CN1CCN(C(=O)C[C@H]2C[C@H]3c4cc(NC(=O)C5CCC5)ccc4O[C@H]3[C@@H](CO)O2)CC1	6[16.7 µM]
CCC(=O)N(C)C[C@@H]1Oc2cc(C3=CCCCC3)ccc2S(=O)(=O)N([C@@H](C)CO)C[C@H]1C	-13[16.7 µM]
CC(C)NC(=O)Nc1ccc2c(c1)C(=O)N([C@@H](C)CO)C[C@H](C)[C@@H](CN(C)C)O2	-3[16.7 µM]
C[C@@H]1CN([C@@H](C)CO)C(=O)CCCn2nncc2CO[C@@H]1CN(C)Cc1ccc(Cl)c(Cl)c1	-6[16.7 µM]
O=C(C[C@H]1CC[C@H](NS(=O)(=O)c2ccc(F)cc2)[C@H](CO)O1)NCc1ccc(Cl)c(Cl)c1	-9[16.7 µM]
C[C@@H]1CCCCO[C@@H](CN(C)C(=O)Nc2cccc3ccccc23)[C@H](C)CN([C@@H](C)CO)C(=O)c2cc(NC(=O)Nc3cccc4ccccc34)ccc2O1	-9[16.7 µM]
C[C@@H]1CN([C@H](C)CO)C(=O)c2cc(NC(=O)Cn3cnnn3)ccc2O[C@@H]1CN(C)Cc1ccc(C(F)(F)F)cc1	-7[16.7 µM]
C[C@@H]1CN([C@@H](C)CO)C(=O)c2cc(N(C)C)ccc2O[C@@H](C)CCCCO[C@@H]1CN(C)Cc1ccc(C(=O)O)cc1	2[16.7 µM]
CO[C@H]1CN(C)C(=O)c2ccc(NC(=O)c3ccccc3F)cc2OC[C@H](C)N(C)C[C@@H]1C	-3[16.7 µM]
Cc1noc(C)c1S(=O)(=O)N(C)C[C@@H]1OCc2ccccc2-c2c(n(C)c3ccccc23)C(=O)N([C@H](C)CO)C[C@H]1C	u
Cc1noc(C)c1NC(=O)N(C)C[C@@H]1Oc2ccc(NC(=O)CCC(F)(F)F)cc2C(=O)N([C@H](C)CO)C[C@@H]1C	-6[16.7 µM]
CC(C)C[C@@H](NC(=O)OC(C)(C)C)C(=O)N1O[C@]23C=C[C@]14C[C@@H](O)CC[C@]4(C)C2CC[C@]1(C)[C@@H]([C@H](C)/C=C/[C@H](C)C(C)C)CC[C@H]13 (stereo not given in full)	-25
Nc1[nH]c(C(=O)c2ccccc2)c(-c2cccc3ccccc23)c1C(=O)NCc1ccc(Cl)cc1Cl	-6
COc1cccc(C(=O)Nc2ccc3c(c2)C(=O)N(C)[C@H]2CC[C@H](CC(=O)NCC(F)(F)F)O[C@@H]2CO3)c1	2[16.7 µM]

(further entries)
Molecule	HIV Env fusion
C[C@H]1CN([C@@H](C)CO)C(=O)c2cc(NC(=O)Nc3ccccc3)ccc2O[C@@H]1CN(C)C	11[16.7 µM]
CN1CCCCC(NC(=O)CCCl)C1=O (stereo not given)	13
Nc1nc2c(ncn2[C@@H]2O[C@H](C(=O)NCC3CCCCC3)[C@@H](O)[C@H]2O)c(=O)[nH]1	-4
COc1cccc(S(=O)(=O)Nc2ccc3c(c2)OC[C@H](C)N(C(=O)Cc2cccnc2)C[C@@H](C)[C@H](OC)CN(C)C3=O)c1	-15[16.7 µM]
O=C(C[C@H]1C[C@@H]2c3cc(NS(=O)(=O)c4ccc(F)cc4)ccc3O[C@@H]2[C@H](CO)O1)N1CCc2ccccc2C1	23[16.7 µM]
CN1C(=O)c2cc(NS(=O)(=O)CC(F)(F)F)ccc2OC[C@H]2O[C@@H](CC(=O)Nc3cccc(F)c3)CC[C@@H]21	7[16.7 µM]
CCCCOCC1CN(CCCC)S(=O)(=O)c2c(Oc3ccc(C)cc3)cccc2O1 (stereo not given)	65*
Nc1ccn([C@@H]2O[C@H](C(=O)N3CCN(C(=O)N4CCCCC4)CC3)[C@@H](O)[C@H]2O)c(=O)n1	19
C/C=C/c1cccc(-c2nc(C(=O)N(C)C)cc3c2[C@H](CCO)N([S@@](=O)C(C)(C)C)C3)c1	-2[16.7 µM]
CO[C@H](CN(C)S(=O)(=O)c1ccc(F)cc1)[C@H](C)CN(C(=O)Nc1ccccc1F)[C@H](C)CO	22[16.7 µM]
CO[C@H]1CN(C)C(=O)c2cccc(C#N)c2OC[C@H]2O[C@@H](CC[C@H]2OC)CCN(C)C(=O)[C@@H]1C	1[16.7 µM]
O=C(C[C@@H]1CC[C@H]2[C@@H](COC[C@@H](O)CN2Cc2cc(F)ccc2F)O1)NCc1ccc(Cl)cc1	17[16.7 µM]
C=CCN1C(=O)c2n[nH]c(COC)c2C1c1cccc(C(F)(F)F)c1 (stereo not given)	18
COc1ccc(NC(=O)N(C)C[C@@H]2Oc3ccc(NS(=O)(=O)c4ccc(F)cc4)cc3CC(=O)N([C@H](C)CO)C[C@@H]2C)cc1	-7[16.7 µM]
CC(C)NC(=O)N(C)C[C@H]1OCCCC[C@H](C)Oc2ccc(NC(=O)c3ccccc3)cc2C(=O)N([C@@H](C)CO)C[C@H]1C	9[16.7 µM]
COCCNC(=O)C[C@@H]1C[C@@H]2c3cc(NS(=O)(=O)c4ccccc4)ccc3O[C@@H]2[C@H](CO)O1	-3[16.7 µM]
COc1ccc(NC(=O)Nc2ccc3c(c2)CC(=O)N([C@@H](C)CO)C[C@@H](C)[C@@H](CN(C)Cc2ccc(Oc4ccccc4)cc2)O3)cc1	-10[16.7 µM]
O=C(C[C@@H]1C[C@H]2c3cc(NC(=O)CC4CC4)ccc3O[C@H]2[C@H](CO)O1)NCC1CC1	-29[16.7 µM]
O=[N+]([O-])c1ccc(Sc2nc3ccccc3[nH]2)c(Cl)c1	5
Cc1noc(C)c1S(=O)(=O)N(C)C[C@H]1OCc2ccccc2-c2c(n(C)c3ccccc23)C(=O)N([C@H](C)CO)C[C@H]1C	6[16.7 µM]
C[C@@H](NC(=O)C[C@@H]1CC[C@@H](NC(=O)c2cccnc2)[C@@H](CO)O1)c1ccccc1	-5[16.7 µM]
CCC(=O)N1C[C@@H](C)[C@@H](OC)CN(C)C(=O)c2ccc(NC(=O)c3ccccc3)cc2OC[C@@H]1C	22[16.7 µM]
CNC[C@@H]1OCCCC[C@H](C)Oc2ccc(NC(=O)c3ccncc3)cc2C(=O)N([C@@H](C)CO)C[C@H]1C	21[16.7 µM]
CCCNC(=O)C[C@@H]1C[C@H]2c3cc(NC(=O)NC4CCCCC4)ccc3O[C@H]2[C@@H](CO)O1	10[16.7 µM]
Nc1[nH]c(C(=O)c2ccccc2)c(-c2ccc(Cl)cc2)c1C(=O)c1c[nH]c2ccccc12	13

The results go on:
Molecule	HIV Env fusion
C[C@@H]1CN([C@@H](C)CO)C(=O)Cc2cc(NC(=O)Nc3cccc4ccccc34)ccc2O[C@H]1CN(C)Cc1ccncc1	-3[16.7 µM]
O=C(N[C@H]1CC[C@H](CCn2cc(-c3ccccc3F)nn2)O[C@H]1CO)c1ccc2c(c1)OCO2	13[16.7 µM]
CC(C)NC(=O)Nc1ccc2c(c1)C(=O)N([C@@H](C)CO)C[C@@H](C)[C@@H](CN(C)C(=O)c1ccncc1)OCCCC[C@H](C)O2	7[16.7 µM]
COC(=O)C1=C(C)N(C)C(=NCc2cccc(C(F)(F)F)c2)NC1c1ccc(C(F)(F)F)cc1 (stereo not given)	42
COC(=O)c1cc2c(c3c4cc(F)ccc4n(S(=O)(=O)c4ccc(C)cc4)c13)C(=O)N(C)C2	9
COC(=O)C[C@@H]1C[C@H]2c3cc(NC(=O)Nc4ccccc4)ccc3O[C@H]2[C@@H](CO)O1	-24[16.7 µM]
CO[C@H]1CC[C@@H]2CCN(C)C(=O)C[C@H](c3ccccc3)CN(C)C(=O)c3cccc(C#N)c3OC[C@H]1O2	-6[16.7 µM]
CO[C@@H]1CN(C)C(=O)c2ccc(NS(=O)(=O)CC(F)(F)F)cc2OC[C@@H](C)NC[C@@H]1C	-15[16.7 µM]
O=c1c2c3c(sc2n(CCN2CCOCC2)c(=O)n1C1CCCCC1)CCCCC3	3
COC(=O)C[C@H]1CC[C@H]2[C@@H](COc3ccc(NC(=O)Nc4cccc(F)c4)cc3C(=O)N2C)O1	32[16.7 µM]
COCC(=O)Nc1ccc2c(c1)OC[C@@H](C)N(C(C)=O)C[C@H](C)[C@H](OC)CN(C)C2=O	-3[16.7 µM]
CO[C@H]1CN(C)C(=O)c2cc(NS(=O)(=O)Cc3ccccc3)ccc2OC[C@H](C)NC[C@H]1C	-10[16.7 µM]
CC(C)NC(=O)N(C)C[C@H]1OCCCC[C@@H](C)Oc2ccc(NC(=O)Nc3ccccc3)cc2C(=O)N([C@H](C)CO)C[C@@H]1C	-5[16.7 µM]
COC(=O)Cc1nnn2c1[C@H](C)[C@@H](OC)c1cc(Br)ccc1-2	5
CN1C(=O)c2cc(NC(=O)c3cccs3)ccc2OC[C@@H]2O[C@@H](CC(=O)N3CCCCC3)CC[C@@H]21	16[16.7 µM]
Cc1noc(C)c1S(=O)(=O)Nc1ccc2c(c1)C(=O)N([C@@H](C)CO)C[C@H](C)[C@@H](CN(C)C(=O)Nc1ccc(F)cc1)O2	-1[16.7 µM]
COc1cccc(S(=O)(=O)Nc2ccc3c(c2)OC[C@@H](C)N(C(=O)Cc2cccnc2)C[C@H](C)[C@H](OC)CN(C)C3=O)c1	10[16.7 µM]
COc1cc2c(cc1OC)[C@@H](NC(=O)c1ccncc1)[C@H](C)[C@H]2c1ccccc1	-11
O=C(C[C@@H]1CC[C@H]2[C@@H](COC[C@H](O)CN2Cc2cc(F)ccc2F)O1)NCc1ccc(Cl)cc1	44[16.7 µM]
COCC(=O)N1C[C@@H](C)[C@H](OC)CN(C)C(=O)c2cc(NC(=O)Nc3cccc(F)c3)ccc2OC[C@@H]1C	-5[16.7 µM]
C[C@@H]1CN([C@@H](C)CO)C(=O)Cc2cc(NS(=O)(=O)c3ccc(F)cc3)ccc2O[C@@H]1CN(C)C(=O)Nc1ccc2c(c1)OCO2	-25[16.7 µM]
COc1cccc(C(=O)N2CCC[C@@H]2C(=O)N2CCC[C@@H]2C(=O)NCc2ccccc2)c1	-2
COc1ccc2c3c([nH]c2c1)[C@H](CO)N(CC1CCOCC1)CC31CN(C(=O)c2ccc(F)cc2)C1	-1[16.7 µM]
COC(=O)C[C@H]1C=C[C@H](NC(=O)Nc2ccc(C(F)(F)F)cc2)[C@H](CO)O1	-29[16.7 µM]
CCCNC(=O)[C@H]1[C@H](CO)[C@H]2Cn3c(ccc(/C=C/c4ccccc4)c3=O)[C@@H]1N2C(=O)c1ccncc1	11[16.7 µM]
CC(C)[C@H](C)NC(=O)N(C)C[C@H]1OCc2ccccc2-c2ccccc2C(=O)N([C@@H](C)CO)C[C@@H]1C	56*[16.7 µM]
CCNC(=O)N1CCN(c2ccc(N3CCN(Cc4ccccc4)[C@@H](C)C3)c(C)c2)[C@H](C)C1	4
CNC(=O)C[C@H]1CC[C@H]2[C@H](COc3ccc(NC(=O)c4cc(F)cc(F)c4)cc3C(=O)N2C)O1	-8[16.7 µM]

A different layout for part of the listing above:
COCC(=O)N1C[C@@H](C)[C@H](OC)CN(C)C(=O)c2cc(NC(=O)Nc3cccc(F)c3)ccc2OC[C@@H]1C
  HIV Env fusion: -5[16.7 µM]

CO[C@H]1CC[C@@H]2CCN(C)C(=O)C[C@H](c3ccccc3)CN(C)C(=O)c3cccc(C#N)c3OC[C@H]1O2
  HIV Env fusion: -6[16.7 µM]

COc1ccc2c3c([nH]c2c1)[C@H](CO)N(CC1CCOCC1)CC31CN(C(=O)c2ccc(F)cc2)C1
  HIV Env fusion: -1[16.7 µM]

COC(=O)C[C@H]1C=C[C@H](NC(=O)Nc2ccc(C(F)(F)F)cc2)[C@H](CO)O1
  HIV Env fusion: -29[16.7 µM]

Not all compounds are listed. The share of hits here may be higher or lower than overall.
